Screening data (PubChem BioAssay)
A1 apoptosis 2: A1 inhibitors via caspase activation, primary screen, cell-based, luminescence, HTS, two replicates; MEF A1-2A-BIM cells, caspase-Glo luminescence, 3 h; percent of clofoctol response, DMSO zero; 24,000 tested, under 10 active; caspase activation, % (no concentration beside the values); in the data active = caspase activation above about 5.9%;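 note: wells of about 30 µL received 50 nL stock; the first replicate is given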
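system = A1-2A-BIM-expressing MEF cells | quantity = 2500 MEF cells/well | dosing = 50 nL compound per well, pinned | schedule = overnight cell settling, then 3 h compound exposure, 37 °C | signal = luminescence from DEVD-luciferin Caspase-Glo reagent, 1:1 in 50 mM HEPES, 1 h RT | read-out = Caspase-3/7 activation, seen as rise in luminescence signal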
Active calls of the source: *.

SMILES	A1 apoptosis 2
C[C@H]1CCCCO[C@H](CN(C)C(=O)NC2CCCCC2)[C@@H](C)CN([C@@H](C)CO)C(=O)c2cc(NC(=O)NC3CCCCC3)ccc2O1	0.0
COc1ccc(S(=O)(=O)Nc2ccc3c(c2)C(=O)N([C@@H](C)CO)C[C@H](C)[C@@H](CN(C)Cc2ccc(C(=O)O)cc2)O3)cc1	-1.4
C[C@@H]1CCCCO[C@@H](CN(C)C(=O)NC2CCCCC2)[C@H](C)CN([C@@H](C)CO)C(=O)c2cc(N(C)C)ccc2O1	0.3
C[C@@H]1CN([C@@H](C)CO)C(=O)Cc2cc(NS(=O)(=O)c3ccc(F)cc3)ccc2O[C@@H]1CN(C)Cc1ccc(Cl)c(Cl)c1	-0.9
Cc1cccc(CN(C)C[C@H]2OCc3cn(nn3)CCCC(=O)N([C@@H](C)CO)C[C@@H]2C)c1	-0.2
C[C@@H]1CN([C@H](C)CO)C(=O)Cc2cc(NS(=O)(=O)c3ccccc3)ccc2O[C@@H]1CN(C)Cc1ccc(Cl)c(Cl)c1	-0.8
C[C@H]1CN([C@@H](C)CO)C(=O)c2cc(NC(=O)Cc3cn(C)c4ccccc34)ccc2O[C@H]1CN(C)CC1CC1	-1.4
COc1ccc(NC(=O)N(C)C[C@@H]2Oc3ccc(NC(=O)CCN4CCOCC4)cc3CC(=O)N([C@@H](C)CO)C[C@@H]2C)cc1	0.7
CNC[C@H]1Oc2c(NS(=O)(=O)c3ccc(OC)cc3)cccc2C(=O)N([C@@H](C)CO)C[C@@H]1C	-0.7
C[C@H](CO)N1C[C@H](C)[C@@H](CN(C)S(=O)(=O)c2ccc(F)cc2)Oc2c(NS(=O)(=O)c3ccc(Cl)cc3)cccc2C1=O	0.0
O=C1O[C@@H](c2ccccc2)[C@@H](c2ccccc2)N2[C@@H](c3ccccc3OCCO)[C@]3(C(=O)Nc4ccccc43)[C@@H](C(=O)N3CCCCCCC3)[C@H]12	-0.1
O=C(N/N=C/c1cccc(OCCO)c1)c1ccccc1O	-8.6
Cc1ccc(S(=O)(=O)N(C)C[C@H]2Oc3ccc(NC(=O)Nc4ccc(F)cc4)cc3C(=O)N([C@@H](C)CO)C[C@H]2C)cc1	-1.7
Cc1noc(C)c1NC(=O)N(C)C[C@H]1Oc2c(NC(=O)Nc3ccccc3)cccc2C(=O)N([C@@H](C)CO)C[C@@H]1C	-0.1
C[C@H]1CN([C@@H](C)CO)C(=O)c2cccc(NS(=O)(=O)c3ccccc3)c2O[C@H]1CN(C)CC1CC1	-0.6
C[C@@H]1CN([C@H](C)CO)C(=O)c2cc(NC(=O)NC3CCCCC3)ccc2O[C@H]1CN(C)C(=O)Nc1ccc(C(F)(F)F)cc1	-1.3
COc1ccc(S(=O)(=O)Nc2cccc3c2O[C@H](CN(C)Cc2ccc(-c4ccccc4)cc2)[C@H](C)CN([C@@H](C)CO)C3=O)cc1	-0.6
CNC[C@@H]1Oc2ccc(NC(=O)CCCN(C)C)cc2C(=O)N([C@H](C)CO)C[C@H]1C	0.2
C[C@@H]1CN([C@H](C)CO)C(=O)Cc2cc(NC(=O)Nc3ccc4c(c3)OCO4)ccc2O[C@H]1CN(C)C(=O)Nc1ccc2c(c1)OCO2	0.2
C[C@@H]1CN([C@H](C)CO)C(=O)Cc2cc(NS(=O)(=O)c3cccs3)ccc2O[C@H]1CN(C)C(=O)Nc1ccccc1	-0.1
C[C@@H]1CN([C@@H](C)CO)C(=O)Cc2cc(NC(=O)CCCCCC(=O)Nc3ccccc3N)ccc2O[C@H]1CN(C)S(=O)(=O)c1ccccc1	-0.7
CNC[C@H]1Oc2c(NS(=O)(=O)c3ccc(C)cc3)cccc2C(=O)N([C@H](C)CO)C[C@@H]1C	1.2
C[C@@H]1CN([C@H](C)CO)C(=O)c2cc(N(C)C)ccc2O[C@H]1CN(C)C(=O)NC1CCCCC1	0.3
C[C@@H]1CCCCO[C@@H](CN(C)Cc2ccc(Cl)c(Cl)c2)[C@H](C)CN([C@H](C)CO)C(=O)c2cc(NC(=O)Nc3ccc(C(F)(F)F)cc3)ccc2O1	1.1
C=CCNC(=O)[C@@H]1[C@H]2C(=O)O[C@H](c3ccccc3)[C@H](c3ccccc3)N2[C@H](c2ccccc2OCCO)[C@@]12C(=O)Nc1ccc(C#CC3=CCCCC3)cc12	3.6
SMILES	A1 apoptosis 2
C[C@H](CO)N1C[C@H](C)[C@@H](CN(C)CC2CCCCC2)Oc2c(NS(=O)(=O)c3cccs3)cccc2C1=O	-0.2
COc1ccc(S(=O)(=O)N(C)C[C@@H]2Oc3ccc(NC(=O)Nc4cccc5ccccc45)cc3CC(=O)N([C@@H](C)CO)C[C@H]2C)cc1	1.2
O=S(=O)(N[C@@H]1CCCN(Cc2ccc(OCCO)cc2)C1)c1ccc2ccccc2c1	-0.4
Cc1noc(C)c1S(=O)(=O)N(C)C[C@@H]1Oc2ccc(NC(=O)C3CCCCC3)cc2CC(=O)N([C@H](C)CO)C[C@@H]1C	0.0
C[C@H](CO)N1C[C@H](C)[C@@H](CN(C)Cc2ccc(C(=O)Nc3ccccc3N)cc2)OCc2cn(nn2)CCCC1=O	-0.2
C[C@@H]1CN([C@@H](C)CO)C(=O)Cc2cc(NC(=O)CCN3CCOCC3)ccc2O[C@@H]1CN(C)S(=O)(=O)c1ccc(Cl)cc1	-1.1
CCOC(=O)N(C)C[C@H]1OCc2cnnn2CCCC(=O)N([C@@H](C)CO)C[C@H]1C	1.8
C[C@@H]1CN([C@H](C)CO)C(=O)c2cc(NS(C)(=O)=O)ccc2O[C@H]1CN(C)Cc1ccc(-c2ccccc2)cc1	0.6
C[C@H]1CN([C@@H](C)CO)C(=O)CCCn2cc(nn2)CO[C@@H]1CN(C)C(=O)c1ccccc1	-0.7
C[C@H]1CCCCO[C@H](CN(C)C(=O)Nc2ccc(C(F)(F)F)cc2)[C@@H](C)CN([C@@H](C)CO)C(=O)c2cc(NC(=O)Nc3ccccc3)ccc2O1	-0.1
C[C@H](CO)N1C[C@H](C)[C@H](CN(C)CC2CC2)Oc2c(NS(C)(=O)=O)cccc2C1=O	0.3
C[C@H]1CN([C@@H](C)CO)C(=O)c2cccc(N(C)C)c2O[C@@H]1CN(C)C(=O)Nc1ccc(F)cc1	-0.2
C[C@H](CO)N1C[C@H](C)[C@H](CN(C)Cc2ccc3c(c2)OCO3)Oc2ccc(NS(=O)(=O)c3ccc(F)cc3)cc2CC1=O	1.3
C[C@H](CO)N1C[C@H](C)[C@@H](CN(C)C(=O)c2ccccc2)OCCCC[C@H](C)Oc2ccc(NC(=O)Nc3cccc4ccccc34)cc2C1=O	-0.6
COc1ccc(S(=O)(=O)N(C)C[C@H]2OCc3cn(nn3)CCCC(=O)N([C@@H](C)CO)C[C@@H]2C)cc1	0.2
C[C@@H]1CN([C@H](C)CO)C(=O)Cc2cc(NS(C)(=O)=O)ccc2O[C@@H]1CN(C)S(=O)(=O)c1cccs1	-0.3
C[C@H]1CN([C@@H](C)CO)C(=O)Cc2cc(NC(=O)CCC(F)(F)F)ccc2O[C@@H]1CN(C)Cc1ccc(Oc2ccccc2)cc1	-0.7
Cc1ccc(S(=O)(=O)Nc2ccc3c(c2)CC(=O)N([C@@H](C)CO)C[C@@H](C)[C@@H](CN(C)Cc2ccccc2)O3)cc1	0.2
O=C(NO)c1cccc(C(=O)N/N=C/c2ccccc2[N+](=O)[O-])c1	-4.5
Cc1noc(C)c1NC(=O)Nc1cccc2c1O[C@@H](CN(C)C(=O)Nc1c(C)noc1C)[C@H](C)CN([C@@H](C)CO)C2=O	-0.6
C[C@H](CO)N1C[C@H](C)[C@@H](CN(C)C(=O)Nc2ccc(C(F)(F)F)cc2)Oc2c(NC(=O)CCCCCC(=O)Nc3ccccc3N)cccc2C1=O	0.1
C[C@@H]1CCCCO[C@H](CN(C)C(=O)CCCN(C)C)[C@@H](C)CN([C@H](C)CO)C(=O)c2cc(NC(=O)c3ccccc3)ccc2O1	0.5
COc1ccc(NC(=O)Nc2ccc3c(c2)C(=O)N([C@H](C)CO)C[C@@H](C)[C@H](CN(C)S(=O)(=O)c2ccc(Cl)cc2)OCCCC[C@@H](C)O3)cc1	-1.0
O=C(N/N=C/c1ccccc1C(=O)O)c1ccccc1O	-13.0
Cc1ccc(S(=O)(=O)Nc2cccc3c2O[C@H](CN(C)S(=O)(=O)c2ccccc2)[C@H](C)CN([C@H](C)CO)C3=O)cc1	0.6
SMILES	A1 apoptosis 2
COc1ccc(NC(=O)Nc2ccc3c(c2)C(=O)N([C@@H](C)CO)C[C@H](C)[C@@H](CN(C)C(=O)Nc2ccc4c(c2)OCO4)OCCCC[C@H](C)O3)cc1	-1.0
C[C@H](CO)N1C[C@H](C)[C@H](CN(C)Cc2ccncc2)Oc2ncc(C#Cc3ccc(C(F)(F)F)cc3)cc2C1=O	0.7
C[C@H]1CN([C@@H](C)CO)C(=O)c2cc(NS(C)(=O)=O)ccc2O[C@H]1CN(C)S(=O)(=O)c1ccc(Cl)cc1	0.7
C[C@H]1CN([C@@H](C)CO)C(=O)c2cccc(NC(=O)Nc3ccc(F)cc3)c2O[C@@H]1CN(C)Cc1ccc2c(c1)OCO2	-0.3
Cc1ccc(S(=O)(=O)Nc2ccc3c(c2)C(=O)N([C@H](C)CO)C[C@@H](C)[C@H](CN(C)C(=O)Nc2ccc(C(F)(F)F)cc2)OCCCC[C@@H](C)O3)cc1	-0.6
CNC[C@H]1Oc2ccc(NC(=O)C3CC3)cc2C(=O)N([C@H](C)CO)C[C@H]1C	0.3
C[C@@H]1CN([C@@H](C)CO)C(=O)Cc2cc(NS(=O)(=O)c3ccccc3)ccc2O[C@H]1CN(C)C(=O)Nc1ccc2c(c1)OCO2	0.1
C[C@@H]1CN([C@@H](C)CO)C(=O)c2cc(NC(=O)CCCCCC(=O)Nc3ccccc3N)ccc2O[C@@H]1CN(C)C	0.1
Cc1noc(C)c1NC(=O)N(C)C[C@@H]1Oc2ccc(NC(=O)CCCCCC(=O)Nc3ccccc3N)cc2CC(=O)N([C@H](C)CO)C[C@@H]1C	0.6
C[C@@H]1CN([C@H](C)CO)C(=O)CCCn2nncc2CO[C@H]1CN(C)Cc1ccccc1	1.3
CC(C)NC(=O)Nc1ccc2c(c1)C(=O)N([C@H](C)CO)C[C@H](C)[C@@H](CN(C)C(=O)Nc1ccc3c(c1)OCO3)OCCCC[C@H](C)O2	-0.1
C[C@H]1CN([C@@H](C)CO)C(=O)c2cc(NC(=O)CCCCCC(=O)Nc3ccccc3N)ccc2O[C@H]1CN(C)S(=O)(=O)c1cn(C)cn1	0.1
Cc1ccc(S(=O)(=O)N(C)C[C@@H]2Oc3ccc(NC(=O)Cc4cn(C)c5ccccc45)cc3C(=O)N([C@@H](C)CO)C[C@@H]2C)cc1	0.2
C[C@H]1CN([C@@H](C)CO)C(=O)c2cccc(NC(=O)Nc3cccc4ccccc34)c2O[C@@H]1CN(C)S(=O)(=O)c1ccc(F)cc1	0.3
COc1ccc(S(=O)(=O)Nc2ccc3c(c2)C(=O)N([C@H](C)CO)C[C@H](C)[C@H](CN(C)C(=O)CCCN(C)C)OCCCC[C@@H](C)O3)cc1	1.8
Cc1noc(C)c1NC(=O)N(C)C[C@@H]1Oc2ccc(NC(=O)CCN3CCOCC3)cc2CC(=O)N([C@@H](C)CO)C[C@@H]1C	0.5
C[C@H]1CCCCO[C@@H](CN(C)C(=O)NC2CCCCC2)[C@@H](C)CN([C@@H](C)CO)C(=O)c2cc(NS(=O)(=O)c3ccccc3)ccc2O1	-0.5
COc1ccc(NC(=O)N(C)C[C@H]2Oc3ccc(NC(=O)Nc4ccccc4)cc3C(=O)N([C@@H](C)CO)C[C@H]2C)cc1	-0.5
C[C@H]1CN([C@@H](C)CO)C(=O)CCCn2nncc2CO[C@H]1CN(C)Cc1ccccc1C(=O)O	-0.3
COc1ccc(S(=O)(=O)N(C)C[C@H]2Oc3ccc(NS(=O)(=O)c4ccc(Cl)cc4)cc3CC(=O)N([C@@H](C)CO)C[C@H]2C)cc1	0.9
C[C@@H]1CN([C@@H](C)CO)C(=O)c2cc(NS(C)(=O)=O)ccc2O[C@@H]1CN(C)C(=O)Nc1ccccc1	0.2
C[C@@H]1CN([C@@H](C)CO)C(=O)c2cccc(NS(=O)(=O)c3cn(C)cn3)c2O[C@@H]1CN(C)Cc1ccc(Cl)c(Cl)c1	0.5

Entries shown so far that have two or more sulfur atoms:
SMILES	A1 apoptosis 2
C[C@H](CO)N1C[C@H](C)[C@@H](CN(C)S(=O)(=O)c2ccc(F)cc2)Oc2c(NS(=O)(=O)c3ccc(Cl)cc3)cccc2C1=O	0.0
C[C@@H]1CN([C@H](C)CO)C(=O)Cc2cc(NS(=O)(=O)c3cccs3)ccc2O[C@H]1CN(C)C(=O)Nc1ccccc1	-0.1
C[C@H](CO)N1C[C@H](C)[C@@H](CN(C)CC2CCCCC2)Oc2c(NS(=O)(=O)c3cccs3)cccc2C1=O	-0.2
C[C@@H]1CN([C@H](C)CO)C(=O)Cc2cc(NS(C)(=O)=O)ccc2O[C@@H]1CN(C)S(=O)(=O)c1cccs1	-0.3
Cc1ccc(S(=O)(=O)Nc2cccc3c2O[C@H](CN(C)S(=O)(=O)c2ccccc2)[C@H](C)CN([C@H](C)CO)C3=O)cc1	0.6
C[C@H]1CN([C@@H](C)CO)C(=O)c2cc(NS(C)(=O)=O)ccc2O[C@H]1CN(C)S(=O)(=O)c1ccc(Cl)cc1	0.7
COc1ccc(S(=O)(=O)N(C)C[C@H]2Oc3ccc(NS(=O)(=O)c4ccc(Cl)cc4)cc3CC(=O)N([C@@H](C)CO)C[C@H]2C)cc1	0.9

The list is partial; rates above refer to the full screens.
